Compound activity from PubChem BioAssay.
miR-21 FLuc – raises the signal of a miR-21 reporter. 340,000 tested, under 10 active. AID 2288. Potency, µM (series often up to 38.3 µM), without a hit: at the top dose reporter change, positive = more light. HeLa miR-21 FLuc reporter, luciferase, 48 h; active = well fitted rising curve with a large enough effect; inconclusive = small, poorly fitted or top-dose-only effect; inactive = no such curve, though single readings can be large or run the other way;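 further: % of control where 0% means no effect; miR-21 action dims this reporter so a rising signal means less miR-21 action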
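Using DMEM plus 10% FBS, HeLa miR-21-FLuc cells are incubated with test compounds (final up to about 40uM) for 48 hours; firefly luciferase signal is then imaged following reagent-mediated lysis.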
Rango dissoc inh – prevents RanGTP from dissociating the Rango-importin beta complex; 340,000 compounds, 0.071% hits; Potency, µM (doses to about 46.1 µM), for inactives: top-dose activity change, negative = inhibition; Biochemical FRET Rango-importin beta, RanGTP-induced dissociation; active means falling FRET ratio curve, often poorly fitted, with flat reads before Ran was added; inconclusive means other falling curves, or compound fluorescence or quenching; inactive means flat or rising ratio curve;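 further: potency means the concentration at half of the fitted maximal effect; % of control where 0% means no effect; nearly all actives have a fitted effect of over 45% in size; -100% = wells without RanGTP and RCC1; the record marks most hits as doubtful in a second field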
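Rango FRET biosensor (snurportin-1 IBB flanked by N-terminal EYFP and C-terminal CFP10) at 0.1 uM, with 0.25 uM importin beta in PBS, 1mM DTT, 0.02% Tween-20, 0.1% BSA. 0.6 uM Ran, 2mM GTP and 0.2 uM RCC1 were then added for 45 min at room temperature. Inhibition read as loss of FRET rise.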
Rango complex inh – prevents formation of the Rango-importin beta complex | Q14974 | Rango CFP/YFP FRET sensor + importin beta, 45 min | Potency, µM (titrated, usually from 92.2 µM), inactives show at the top dose inhibition of complex formation | 340,000 compounds, 0.031% hits | AID 540263; active = rising FRET ratio curve, often small or poorly fitted; inconclusive = mostly compound fluorescence or quenching in the first reads; inactive = flat curves in all reads;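 further: potency means the concentration at half of the fitted maximal effect; 0% = DMSO wells and 100% = buffer wells lacking importin beta; nearly all actives have a fitted effect of over 15% in size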
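FRET biosensor (snurportin 1 IBB flanked by EYFP and cerulean), 50 nM, with compound 5 min, then 0.125 microM importin beta in PBS, 1 mM DTT, 0.02% Tween-20, 0.1% BSA. CFP/YFP ratio read after 45 min at room temperature; pre-read flags interference.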
GLA inh pH 4.5 – alpha-galactosidase A (human) inhibition, pH 4.5; P06280; purified enzyme, 4-MU-alpha-Gal fluorescence, pH 4.5; activity change, negative = inhibition, % at 105 µM; 230,000 tested, under 10 active; AID 1467; inconclusive = small, poorly fitted or top-dose-only inhibition, or a rising curve; inactive = flat fitted curve, though single readings scatter; no compound was filed as active;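 further: 0% = full activity with enzyme and -100% = basal without enzyme; dose as in the result columns while the protocol names 77 µM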
Target sequence (P06280 whole entry, looked up): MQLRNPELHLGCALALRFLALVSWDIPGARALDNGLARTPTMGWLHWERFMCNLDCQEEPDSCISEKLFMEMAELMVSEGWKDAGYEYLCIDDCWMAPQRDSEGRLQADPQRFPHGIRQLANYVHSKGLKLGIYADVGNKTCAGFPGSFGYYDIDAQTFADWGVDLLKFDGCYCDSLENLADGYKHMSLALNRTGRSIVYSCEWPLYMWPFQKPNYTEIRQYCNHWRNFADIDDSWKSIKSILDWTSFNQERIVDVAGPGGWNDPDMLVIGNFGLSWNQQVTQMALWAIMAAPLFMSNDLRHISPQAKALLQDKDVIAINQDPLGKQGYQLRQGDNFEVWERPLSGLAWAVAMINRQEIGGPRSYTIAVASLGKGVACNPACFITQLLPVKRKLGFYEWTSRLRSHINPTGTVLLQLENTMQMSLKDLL
Starred values were filed as active, the others as inactive; ? = inconclusive; · = not tested or not shown; & = joins results of further samples. Not all compounds are listed (hit frequency here may not be typical).

Every second line gives: miR-21 FLuc, Rango dissoc inh, Rango complex inh, GLA inh pH 4.5
> O=C(CNCc1ccco1)Nc1cccc(S(=O)(=O)N2CCCCC2)c1
 : 4%, -18%, 0.3%, -4
> CN1C(=O)C(C)(C)c2cc(S(=O)(=O)N3CCN(c4ccccc4F)CC3)ccc21
 : -1%, 31%, -0.5%, ·
> COCCNc1cc(C)nc2c(-c3ccccc3OC)c(C)nn12
 : -9%, -6%, -2.1%, 4
> Cc1ccc(C2C(C(=O)c3cc4ccccc4o3)=C(O)C(=O)N2c2cc(C)on2)cc1 (stereo not given)
 : -5%, ?, ?, ·
> O=C(Nc1nc(-c2ccccc2)cs1)c1cccc(S(=O)(=O)N2CCN(Cc3ccccc3)CC2)c1
 : 23%, 1%, 0.0%, -14
> O=C(Nc1cc(Br)ccc1O)c1cc(-c2ccco2)on1
 : -30%, -4%, 3.5%, ·
> CCCCc1ccc(NC(=O)CSCc2cc(=O)[nH][nH]2)cc1
 : -5%, -14%, -6.8%, 10
> CC(=O)N1N=C(c2ccc(C)cc2)OC1c1ccc(C)cc1 (stereo not given)
 : -60%, -2%, 0.1%, 5
> CCOCCCNC(=O)c1ccc2c(c1)ncn2-c1ccc(CC)cc1
 : -17%, 1%, 1.3%, ·
> C=CCn1c(C(C)C)nc2ccccc21
 : -2%, 3%, -0.6%, 4
> Cc1onc(-c2c(Cl)cccc2Cl)c1C(=O)NC(=S)Nc1sc2c(c1C(N)=O)CCC(C)C2 (stereo not given)
 : -9%, -5%, 2.7%, 1
> COc1cccc(CNC(=O)CCS(=O)(=O)c2ccc3c(c2)oc(=O)n3C)c1
 : -2%&-2%, -2%, 4.5%, ·
> Cc1ccc(C(=O)O)cc1NC(=O)Nc1cccc2ccccc12
 : 0%, 0%, -0.1%, ·
> COc1ccc(CCC(=O)NCc2cccc(C(F)(F)F)c2)cc1
 : -1%, -6%, -0.5%, ·
> Cc1nonc1CN(C)C(=O)c1ccc(OC2CCN(C(=O)c3cccnc3)CC2)cc1
 : 1%, -4%, -5.9%, ·
> CCOC(=O)Nc1c(C(=O)OC)[nH]c2cc(OC)ccc12
 : 13%, 6%, 3.3%, 0
> CCC(C(=O)O)N1C(=O)/C(=C/C(C)=C/c2ccccc2)SC1=S (stereo not given)
 : -8%, 9%, -0.2%, -11
> O=C(NCCN1CCOCC1)C(=O)NCc1ccc2c(c1)OCO2
 : 1%, 6%, 1.2%, -1
> COCCN(CC(=O)NCC1CCCO1)C(=O)CCC(=O)Nc1ccccn1 (stereo not given)
 : 4%, -11%, -2.6%, -4
> O=C(Nc1cc2c3c(c1)CC(=O)N3CCC2)c1ccc(Br)o1
 : ·, -11%, 3.8%, ·
> CCOc1ccc(NC(=O)CSc2nnc(Cn3cnc4ccccc43)n2C)cc1
 : -5%, 0%, -1.4%, 7
> O=C(NCc1ccccc1)c1ccc(Cl)c(S(=O)(=O)N2CCCC2)c1
 : ·, 29%, -0.4%, ·
> Cc1c(Cl)cccc1NC(=O)CNC(=O)CCCc1nc2ccccc2c(=O)[nH]1
 : ·, 8%, 1.0%, ·
> Cc1cc(C)cc(NC(=O)C2CC3CCC2C3)c1 (stereo not given)
 : -12%, 7%, 0.0%, ·
> CCn1nc(C)c(Br)c1-c1nc(CS(=O)(=O)c2ccsc2)no1
 : -30%, 1%, ?, -13
> O=C1COc2ccc(C(=O)COC(=O)c3cnc(Cl)c(Cl)c3)cc2N1
 : 1%, 5%, 3.1%, 5
> CCCc1cc(=O)[nH]c(/N=C(/NC(=O)c2ccccc2)Nc2ccc3c(c2)OCCO3)n1
 : ·, 2%, 3.2%, ·
> Cc1cc(/C=C(\C#N)C(=O)NCc2cccs2)c(C)[nH]1
 : -38%, ?, ?, 0
> CCN1CCN(c2ccc(S(=O)(=O)N3CCCCC3)cc2NC(=O)Cc2ccc(OC)cc2)CC1
 : 2%, -7%, 4.9%, ·
> Cc1ccc(NC(=S)Nc2ccc(S(=O)(=O)N3CCOCC3)cc2)cc1S(=O)(=O)N1CCOCC1
 : 8%, 14%, -1.0%, 9
> CCOC(=O)C1(Cc2cccc(OC)c2)CCN(Cc2ccc3c(c2)OCCO3)CC1
 : 11%, 28%, 1.0%, -5
> COC(=O)C1=C(C)N(CCCC(=O)O)C(=O)NC1c1ccc(-c2ccccc2)cc1 (stereo not given)
 : -15%, 13%, 2.6%, 6
> COc1cccc(/C=N/Nc2ncnc3c2[nH]c2ccc(C)cc23)c1OC
 : -13%, -5%, 2.4%, 0
> NC(=O)COC(=O)c1ccccc1SCC(=O)NC1CCCCCC1
 : -5%, 4%, 2.3%, -2
> COc1ccc(-c2c[n+](CC(=O)c3cccs3)c3n2CCC3)cc1
 : 17%, 10%, 3.3%, -6
> CC(=O)Nc1ccnn1C1CCN(C(=O)c2cccc(C)c2C)CC1
 : -1%, -8%, 4.6%, ·
> COc1cc2[nH]c(=O)n(CCC(=O)NCCC(C)C)c(=O)c2cc1OC
 : 4%, 0%, 3.2%, -5
> CC(CCc1ccccc1)NCC(O)c1cccc([N+](=O)[O-])c1 (stereo not given)
 : -16%, 15%, 3.5%, -1
> Cc1nc(CNS(=O)(=O)c2cccnc2)cs1
 : -5%, 21%, -2.3%, -4
> COc1cccc(C=Nc2cccnc2)c1O
 : 1%, ·, ·, 4
> CCOC(=O)N/N=C/c1cc(C)n(-c2ccccc2)c1C
 : -41%, 16%, 0.3%, 0
> CCOC(=O)[C@@H]1[C@H]2COc3cc(OC)ccc3[C@@H]2N2C(=O)N(c3cccc(C)c3)C(=O)[C@]12C
 : ·, 9%, -1.6%, ·
> Cc1cc2c(=O)[nH]cnc2s1
 : -4%, -18%, ?, 1
> O=C(Nc1ccccc1C(=O)N1CCCC1)c1ccc(Cl)c([N+](=O)[O-])c1
 : 5%, 11%, 0.1%, -3
> O=S(=O)(N/N=C\c1ccccc1O)c1ccc(Cl)cc1
 : -29%, 9%, 1.8%, ·
> Cc1ccc(C)c(N2CCN(CCN3CCCCC3)CC2)c1
 : -6%, 2%, 3.0%, ·
> CCOC(=O)c1c(NC(=O)CSc2c[nH]c3ccccc23)sc2c1CCCC2
 : 7%, -19%, 1.7%, 5
> Cc1cc(C)c(CN2CCN(CCCn3ccc(NC(=O)OCc4ccccc4)nc3=O)CC2)c(C)c1
 : ·, -2%, ?, ·
> Cc1csc(SCCn2c(N3CCOCC3)nc3c2c(=O)[nH]c(=O)n3C)n1
 : -2%, -13%, -0.5%, -3
> COc1ccc(NC(=S)c2ccncc2)cc1
 : -4%, -1%, -0.4%, -3
> CC(C)C[C@@H](COc1ccccc1)N1CCN(C)CCC1=O
 : 2%, 3%, -2.1%, ·
> COc1cccc(C2=NOC(C(=O)N3CCc4ccccc4C3)C2)c1 (stereo not given)
 : -12%, -27%, 0.5%, -3
> COc1ccccc1C1C(C#N)=C(N)Oc2c1oc(CO)cc2=O (stereo not given)
 : -3%, -12%, -0.4%, ·
> CC(=O)NC12CC3CC(C1)CC(C(=O)Oc1ccc(N(C)S(=O)(=O)c4cc(C)ccc4C)cc1)(C3)C2
 : ·, -5%, -0.4%, ·
> CN1c2ccccc2-c2ccccc2S1(=O)=O
 : ·, -10%, -0.9%, ·
> COCCn1c(C)cc(C(=O)COC(=O)Cc2n[nH]c(=O)c3ccccc23)c1C
 : ·, -9%, 0.4%, ·
> CCN(CC(=O)NCc1ccc(F)cc1)C(=O)/C=C/c1cccs1
 : -6%, 8%, -1.7%, -2
> COc1cc(C(=O)NCC(=O)NCCSc2ccc(Br)cc2)cc(OC)c1OC
 : ·, 23%, 0.4%, ·
> C/C=C\C=C/C(=O)Nc1cccc(C2=NOC3(C2)C[C@@H](C(N)=O)N(C(=O)c2ccccc2)C3)c1 (stereo not given in full)
 : -2%, ·, ·, -10
> CC(C)(C)OC(=O)NCC(=O)NNC(=O)C(C(=O)OCc1ccccc1)c1ccccc1 (stereo not given)
 : ·, 3%, -2.5%, ·

Next part.
Every second line gives: miR-21 FLuc, Rango dissoc inh, Rango complex inh, GLA inh pH 4.5
> COc1ccc(O)c(C=Nc2cc(NC(C)=O)c(Cl)cc2Cl)c1
 : -2%, 0%, -1.0%, 3
> Nc1cc(=O)[nH]c(SCC(=O)NC2CCCCCCC2)n1
 : ·, -4%, 4.6%, ·
> Cc1ccc(S(=O)(=O)N2CCN=C2SCc2cccnc2)cc1
 : -4%, 0%, 1.3%, 0
> CCN(C(=O)CSc1nc2nc(C)cc(C)n2n1)c1ccccc1
 : -9%, -6%, -2.0%, 2
> CN(Cc1cc(Cl)cc(Cl)c1O)Cc1c(O)ccc2ccccc12
 : ·, 0%, -1.9%, ·
> CCC(C)NC(=O)Cn1nc(Cc2ccncc2)c2ccccc2c1=O (stereo not given)
 : 0%, -2%, -1.6%, ·
> O=C1CCCc2ccccc2N1Cc1ccc(Cl)cc1
 : 1%, -11%, 0.0%, -29
> Cc1ccc(C)c(C(=O)COC(=O)c2ccccc2N2C(=O)C3C4CCC(C4)C3C2=O)c1 (stereo not given)
 : 1%, 9%, -2.1%, -1
> CCCOc1ccc(S(=O)(=O)N2CCCC2)cc1[N+](=O)[O-]
 : -23%, 17%, -4.6%, -9
> COc1ccc(NC(=O)COC(=O)CCC(=O)c2cccs2)cc1OC
 : ·, 17%, -2.3%, ·
> COc1c(Cl)cc(C(=O)Nc2ccccc2C(=O)O)cc1Cl
 : -32%, 6%, -1.2%, -7
> O=C(O)c1ccc(NC(=O)c2cccc(S(=O)(=O)Nc3ccc(C(=O)O)cc3)c2)cc1
 : 4%, 2%, -1.0%, ·
> CCC(=O)Nc1ccc(NC(=S)NC(=O)Cc2ccccc2)cc1
 : -6%, -1%, 7.0%, -11
> O=C(CSCc1ccccc1)Nc1cc([N+](=O)[O-])ccc1F
 : 5%, -10%, -1.2%, -27
> Cc1nc(NC(=S)Nc2ccccc2)sc1C
 : -12%, 0%, -4.9%, -5
> Cc1nc(N2CCN(c3ccccn3)CC2)c2c(C)c(C(=O)Nc3ccccc3F)sc2n1
 : -1%, -14%, -1.7%, 19
> O=C(CCCn1cnc([N+](=O)[O-])n1)Nc1ccc(Cl)cc1Cl
 : -9%, -3%, -3.6%, 7
> Cc1cc2c(cc1S(=O)(=O)Nc1ccc(OC(F)(F)F)cc1)OCC(=O)N2
 : 14%&-18%, -18%, 6.3%, ·
> CC(=O)C1=C(C)NC(SCC(=O)c2ccc(C)cc2)=C(C#N)C1c1ccco1 (stereo not given)
 : -3%, ·, ·, -6
> O=C(O)C(Cc1ccccc1)NS(=O)(=O)c1ccc(Cl)cc1 (stereo not given)
 : -3%, -3%, 0.5%, ·
> N#CC(c1ccc(Cl)cc1)c1ccc2c(C(F)(F)F)cc(C(F)(F)F)nc2n1 (stereo not given)
 : ?, -21%, ?, -2
> CCOC(=O)c1cc2c(C)nn(-c3ccccc3)c2s1
 : -7%, 1%, 0.0%, 2
> O=c1[nH]c(NCCO)nnc1Cc1ccccc1
 : 4%, 15%, 3.0%, ·
> O=C(c1ccc(CNS(=O)(=O)c2cccc(Cl)c2)cc1)N1CCCC1
 : 0%, 11%, 4.2%, 3
> O=C(NCc1ccc(Cl)cc1)C1CCCCN1S(=O)(=O)c1ccccc1 (stereo not given)
 : 7%, -15%, -0.1%, ·
> CCN(C(=O)COC(=O)c1ccc[nH]c1=O)c1cccc2ccccc12
 : ·, -10%, -5.4%, ·
> O=C(NCc1ccc2c(c1)OCO2)C1CC(=O)N(c2ccc(O)cc2)C1 (stereo not given)
 : -2%, -9%, ?, -14

Another view of part of the listing above.
O=C(NCc1ccc(Cl)cc1)C1CCCCN1S(=O)(=O)c1ccccc1 (stereo not given)
  miR-21 FLuc: 7%	Rango dissoc inh: -15%	Rango complex inh: -0.1%	GLA inh pH 4.5: ·
CCN(C(=O)COC(=O)c1ccc[nH]c1=O)c1cccc2ccccc12
  miR-21 FLuc: ·	Rango dissoc inh: -10%	Rango complex inh: -5.4%	GLA inh pH 4.5: ·
O=C(NCc1ccc2c(c1)OCO2)C1CC(=O)N(c2ccc(O)cc2)C1 (stereo not given)
  miR-21 FLuc: -2%	Rango dissoc inh: -9%	Rango complex inh: ?	GLA inh pH 4.5: -14
